Bioassay records: PubChem BioAssay, National Center for Advancing Translational Sciences (NCATS)
Vaccinia Venus: vaccinia inhibition (Venus reporter); Vaccinia virus Venus reporter expression, fluorescence; Potency, µM (doses to about 36.5 µM), without a hit: at the top dose activity change, negative = inhibition, usual class: inhibitors; actives 0.46% (n = 330,000); active means well fitted inhibition curve with a large enough effect; inconclusive means small, poorly fitted or top-dose-only effect; inactive means no such curve, though single readings can be large or run the other way; tested in A549 cells; also: nearly all actives have a fitted effect of over 30% in size; inactives centre near -10
Vaccinia mCherry: inhibitors of vaccinia virus infection (mCherry reporter signal). Vaccinia virus mCherry reporter infection, fluorescence; about a quarter of the inactives have no number. Potency, µM (highest dose often 36.5 µM), without a hit: at the highest dose activity change, negative = inhibition, hits mostly inhibitors. actives 0.63% (n = 310,000). AID 720579; active = well fitted inhibition curve with a large enough effect; inconclusive = small, poorly fitted or top-dose-only effect; inactive = no such curve, though single readings can be large or run the other way; tested in A549 cells; also: nearly all actives have a fitted effect of over 35% in size; inactives centre near -10
The depositor's hits bear a star; i = inactive; ? = inconclusive; nt = not tested or not shown; & = joins results of further samples; [ ] = another dose, or the depositor's remark. % is scaled to controls: 0 for no effect and ±100 for the full control effect; potency is read from the fitted curve at half-maximal effect.

No. | Molecule | Vaccinia Venus | Vaccinia mCherry
1 | COc1ccccc1N1CCN(c2ccc(=O)n(CC(=O)O)n2)CC1 | -4% | -2%
2 | CCN(CC)c1ncnc2c1[nH]c1ccccc12 | ? | nt
3 | CC(=O)NC(CCS(C)(=O)=O)C(=O)Nc1nc(C)cs1 (stereo unspecified) | -12% | -4%
4 | O=C(O)c1ccccc1C(=O)c1ccc(Br)s1 | -3% | -3%
5 | O=C(Nc1ccc(N2C(=O)C3C4C=CC(C4)C3C2=O)cc1)Nc1cccnc1 (stereo unspecified) | -10% | nt
6 | CCCCn1c(N)c(N(CCOC)C(=O)c2cc(S(=O)(=O)N3CCCCC3)ccc2C)c(=O)[nH]c1=O | 2% | i
7 | CCOc1cc(CNCc2cccs2)ccc1OCC(=O)NC(C)(C)C | -19% | -8%
8 | CCN(CC(=O)Nc1ccccc1C(F)(F)F)C(=O)c1cccc(N2C(=O)CCC2=O)c1 | -8% | -10%
9 | COc1ccc2nc(NC(=O)CC3Oc4ccccc4NC3=O)sc2c1 (stereo unspecified) | 23% | -12%
10 | O=C(O)CSc1nnc(CNc2ccc(F)cc2)n1-c1ccccc1 | -11% | -8%
11 | c1ccc(CN2OCC3Cn4c(nc5ccccc54)C32)cc1 (stereo unspecified) | -6% | -16%
12 | O=C1CCC(C(=O)Nc2ccccc2N2CCCC2)=NN1 | -7% | -11%
13 | CCn1ncc(/C=N\NC(=O)COc2cc(C)cc(C)c2)c1C | ? | -18%
14 | O=S(=O)(N/N=C\c1c(F)cccc1Cl)c1ccc(Cl)cc1 | -17% | nt
15 | O=C(CN1C(=O)NC(Cc2c[nH]c3ccccc23)C1=O)NC1CC1 (stereo unspecified) | 6% | -5%
16 | COc1cc(CNCCC2CCOC(C)(C)C2)ccc1O (stereo unspecified) | -15% | nt
17 | Cc1cccc(/C(N)=N/OC(=O)c2ccc3c(c2)OCO3)c1 | 5% | -14%
18 | CCC(=O)N1CCc2cc(Br)cc(S(=O)(=O)CCC(=O)Nc3ccc(C)c(C)c3)c21 | 5% | -2%
19 | COc1ccc(Cl)cc1C=CC=NNS(=O)(=O)c1ccc(C)cc1 | -10% | -6%
20 | CC(=O)N1c2ccc(S(=O)(=O)NCCC(=O)NC3CCC(C)CC3)cc2CC1C (stereo unspecified) | -10%[7.34 µM] | -11%[7.34 µM]
21 | CCCNC(=O)C1CCN(S(=O)(=O)c2c(C)noc2/C=C\c2ccc(OC)cc2)CC1 | -11% | -14%
22 | Fc1cc(F)c(C2SCCN2C(=S)Nc2cccc(C(F)(F)F)c2)c(F)c1 (stereo unspecified) | -16%[7.34 µM] | -9%[7.34 µM]
23 | CC(=O)Nc1ccc(Nc2nccc(C)n2)cc1 | 5% | 1%
24 | COCCNC(=O)C(=O)NCC1CCCN1S(=O)(=O)c1cccs1 (stereo unspecified) | -5% | i
25 | O=C(NCc1cccnc1)c1cccc(OC2CCN(Cc3ccc(CO)o3)CC2)c1 | -7% | i
26 | CCc1nn(CC(=O)NCCC(C)C)c(=O)c2cc3occc3n12 | -2% | -5%
27 | CC1(C)Oc2nc3ccccc3n2/C1=C\C#N | -13% | nt
28 | O=C(CN1CCOCC1)c1ccc(Br)cc1 | -6% | -12%
29 | Cc1cccc(CCNC(=O)CCCOc2cc(=O)n(C)c3ccccc23)c1 | 0% | i
30 | Cc1ccc(/C=C(\C#N)c2nn(-c3ccccc3)c(N)c2C#N)cc1 | ? | 10µM*
31 | Cc1ccc(NC2CCCN(C(=O)CCC(=O)c3ccccc3)C2)cc1C (stereo unspecified) | 0%[7.34 µM] | ?
32 | COC(=O)C1=C/CCCN(C(c2ccccc2)c2ccccc2)/C=C\1C(=O)OC | -14% | i
33 | COc1ccc(/C=N/NC(=O)C2c3ccccc3-c3ccccc32)cc1 | -24% | -6%
34 | O=C(CCN1CCc2ccccc2C1)Nc1ccc(F)c(F)c1 | -14% | -23%
35 | O=C(NCCC1=CCCCC1)c1ccc2c(c1)ncn2-c1ccc(F)c(F)c1 | -1% | -2%
36 | O=C(NC(=S)NNC(=O)c1ccccc1F)c1cccnc1 | 2%[7.34 µM] | -1%[7.34 µM]
37 | N/C(=N\OC(=O)c1ccco1)c1cccnc1 | -1% | i
38 | O=C(Cc1ccc(NC(=O)C2CCN(C(=O)c3ccccc3)CC2)cc1)Nc1ccc(C(=O)N2CCOCC2)cc1 | 2% | -12%
39 | CCOC(=O)C1=C(COC(=O)C(C)(C)Oc2ccc(Cl)cc2)NC(=O)NC1C (stereo unspecified) | -7% | -13%
40 | COc1ccc(-c2cn3c(C)c(C(=O)N4CCc5ccccc5C4)sc3n2)cc1 | -22% | ?
41 | O=C(Cn1cc(S(=O)(=O)N2CCN(c3ccccc3F)CC2)c2ccccc2c1=O)Nc1cccc(C(F)(F)F)c1 | -7% | -18%
42 | Cc1c(NC(=S)NC(=O)CCc2ccccc2)c(=O)n(-c2ccccc2)n1C | -5% | i
43 | CC(C)c1ccc(CSc2ccc(S(=O)(=O)N3CCOCC3)cn2)cc1 | -11% | i
44 | CC(=O)Nc1ccc(NC(C)=O)c(NC2OCC(O)C(O)C2O)c1 (stereo unspecified) | -5% | -3%
45 | COc1ccccc1CNC(=O)C1CCCN(S(C)(=O)=O)C1 (stereo unspecified) | -11% | -12%
46 | O=C(COC(=O)c1ccccn1)NCc1ccccc1Cl | -4% | -12%
47 | CCCS(=O)(=O)c1c(S(=O)(=O)CCC)c2c(N)cccn2c1C(=O)c1ccc(F)cc1 | -29% | -2%
48 | Cc1noc(C)c1S(=O)(=O)N1CCC(C(=O)N2CCN(C(=O)c3ccco3)CC2)CC1 | -17% | i
49 | CCN(CC)S(=O)(=O)c1ccc(N2CCN(S(=O)(=O)c3ccc4c(c3)OCCO4)CC2)nc1 | ? | nt
50 | Nc1ccccc1OCP(=O)(c1ccccc1)c1ccccc1 | -8% | -3%

One compound at a time (already shown):
Record of O=C(O)c1ccccc1C(=O)c1ccc(Br)s1 → Vaccinia Venus: -3%; Vaccinia mCherry: -3%
Record of O=C(NC(=S)NNC(=O)c1ccccc1F)c1cccnc1 → Vaccinia Venus: 2%[7.34 µM]; Vaccinia mCherry: -1%[7.34 µM]

(further entries)
No. | Molecule | Vaccinia Venus | Vaccinia mCherry
51 | COc1ccc(/C=C/c2noc(-c3ccccc3O)n2)cc1OC | 1% | 2%
52 | Nc1c(Br)cc(Br)c(N2CCCC2=O)c1Br | -12% | nt
53 | O=C(CSc1nnc(-c2ccncc2)o1)NCc1ccccc1Cl | -7% | i
54 | CCOC(=O)[C@@H]1[C@H]2COc3cc(OC)ccc3[C@@H]2N2C(=O)N(c3ccccc3)C(=O)[C@@]12C | 3% | i
55 | CC(=O)c1ccc(OC(=O)c2nc(-c3ccccc3)oc2C)cc1 | 3% | 9%
56 | COc1ccc(NC(=O)c2cnn(-c3ccc(C)cc3)c2-n2cccc2)cc1Cl | -16% | -10%
57 | CCCn1c(SCC(=O)NCc2ccc(Cl)cc2)n[nH]c1=O | -12% | -2%
58 | CCCCn1c(SCC(=O)NCc2ccc(C)cc2)nc2c(sc3ccccc32)c1=O | 3% | -3%
59 | Cn1cc(S(=O)(=O)N2CCCCC2)cc1C(=O)Nc1cccc(C#N)c1 | -13% | -8%
60 | COc1ccc(C(=O)COC(=O)[C@@H](NS(=O)(=O)c2ccccc2)C(C)C)cc1 | -14% | -17%
61 | CCn1c2c(c(=N)c3c1CCC3)CCCC2 | -9% | i
62 | COc1cc(CC(NC(C)=O)C(=O)NC2CCN(c3c(Cc4ccccc4)c(C)nc4ncnn34)CC2)cc(OC)c1 (stereo unspecified) | -6% | -13%
63 | C[C@H](CO)N1C[C@H](C)[C@H](CN(C)S(=O)(=O)c2cccc(F)c2)Oc2ncc(-c3cccc(C(=O)N(C)C)c3)cc2C1=O | -3% | -11%
64 | CCOc1ccc(C(F)(F)F)cc1NC(=O)c1ccc(OC)c([N+](=O)[O-])c1 | -10% | i
65 | O=C(NCCN1CCOCC1)c1cccc(S(=O)(=O)N2CCCC2)c1 | -9% | -15%
66 | c1cnc2c(C3NCCc4c3[nH]c3ccccc43)cccc2c1 (stereo unspecified) | -13% | -13%
67 | O=C(O)c1ccccc1-c1ccccc1C(=O)NCc1cccnc1 | -2% | -1%
68 | COc1ccc(/C=N/OCC(=O)N=Nc2c(O)[nH]c3ccc(Br)cc23)cc1 | -1% | -3%
69 | O=C(Cc1ccccc1)N/N=C/C=C/c1cccc([N+](=O)[O-])c1 | 11% | 7%
70 | CCNC(=O)CC1C(=O)N(CC)C(=S)N1NC(=O)c1ccccc1 (stereo unspecified) | -10% | -10%
71 | CC(=O)c1cccc(NC(=O)C2(C)Cc3c(-c4cccc(C(F)(F)F)c4)ccnc3O2)c1 (stereo unspecified) | -10% | -6%
72 | CCOC(=O)CC(=O)CSc1[nH]c(=O)cc(C)c1C#N | -2% | -1%
73 | N=c1sccn1Cc1ccc(Cl)cc1Cl | 3% | -13%
74 | O=C(COc1ccccc1)NC1CCSC1=O (stereo unspecified) | -15% | -6%
75 | Oc1ccc2c3c1O[C@H]1[C@@H](O)CC[C@@]4(O)[C@@H](C2)N(CC2CCC2)CC[C@]314 | -12%&-11% | -16%
76 | CC(NC(=O)c1c(Cl)cnn1C)C1CCCO1 (stereo unspecified) | -15% | -18%
77 | Cc1c(Cl)cccc1NC(=O)CCCn1cnc([N+](=O)[O-])n1 | -29% | ?
78 | CSCC[C@H](NS(=O)(=O)c1ccc(C)cc1)C(=O)N1CCC(C(=O)N[C@H](C(=O)O)c2ccccc2)CC1 | -3% | 6%
79 | CC(=O)NN(O)C1N(C)C(=O)N(Cc2ccccc2)C1(C)C (stereo unspecified) | -8% | i
80 | CC1(C(=O)Nc2ccc(Cl)c(Cl)c2)CCN1C(=O)CCC1CCCC1 (stereo unspecified) | 0% | i
81 | COc1cc(OC)cc(-c2nc3ccccc3c(=O)n2OC(=O)c2ccc(Br)cc2)c1 | -8% | -19%
82 | CCOC(=O)C1CCN(c2c(NCCCN(CC)Cc3ccccc3)c(=O)c2=O)CC1 | -5% | i
83 | CCOC(=O)c1[nH]c(C)c(CCC(=O)Nc2ccc(N(CC)CC)cc2C)c1C | -6% | -9%
84 | C=CCN1C(=O)OC2(CCCCC2)C1(C)O (stereo unspecified) | 1% | i
85 | O=C(CSc1nc2ccccc2n1S(=O)(=O)c1cccc([N+](=O)[O-])c1)NCCc1ccccc1 | -23% | -28%
86 | Cc1nnc2c(N(C)S(=O)(=O)c3ccccc3)nc3ccccc3n12 | -14% | -12%
87 | COc1ccc(S(=O)(=O)N(C)C[C@H]2Oc3c(NC(=O)Nc4c(C)noc4C)cccc3C(=O)N([C@@H](C)CO)C[C@H]2C)cc1 | 0% | -13%
88 | Cc1ccccc1C(=O)NNC(=S)NC(=O)c1ccccc1 | -11% | ?
89 | COc1ccccc1C(=O)NCc1nnc(SCC(=O)Nc2nccs2)n1C | 0% | -13%
90 | Cc1[nH]n(-c2ccccc2)c(=O)c1C(=O)c1ccc([N+](=O)[O-])cc1 | 5% | i

3 structures from above, arranged by count of non-hydrogen atoms, highest first.
No. | Molecule | Vaccinia Venus | Vaccinia mCherry
89 | COc1ccccc1C(=O)NCc1nnc(SCC(=O)Nc2nccs2)n1C | 0% | -13%
53 | O=C(CSc1nnc(-c2ccncc2)o1)NCc1ccccc1Cl | -7% | i
61 | CCn1c2c(c(=N)c3c1CCC3)CCCC2 | -9% | i

Following part:
No. | Molecule | Vaccinia Venus | Vaccinia mCherry
91 | CC(C)c1ccccc1NC(=O)CCc1nc2ccccc2s1 | -13% | -17%
92 | Cc1cc(/C=N/Nc2ccc([N+](=O)[O-])cn2)c(C)n1-c1ccc(C(=O)O)cc1 | -2% | -12%
93 | COC(=O)c1cccc(C23CC4(C2)[C@H](CN(C)[C@@H]4c2ccccc2)C3c2ccc(C(F)(F)F)cc2)c1 (stereo partly specified) | -16% | ?
94 | Cc1ccccc1Cn1c(C)c(C(=O)NCC(C)C)sc1=O | 2% | 11%
95 | Cc1ccccc1N=C1SCCN1C(=O)CN1C(=O)NC2(CCCC2)C1=O | -30% | ?
96 | CC1CCN(S(=O)(=O)c2cccc(S(=O)(=O)N3CCCC3)c2)CC1 | -4% | 4%
97 | O=[N+]([O-])c1ccc(N2CCN(c3ccc([N+](=O)[O-])cc3CO)CC2)c(CO)c1 | -6% | -7%
98 | CN(C)CCCNC(=O)C[C@H]1C[C@H](C(=O)N2CCOCC2)[C@@]2(C)c3[nH]c4cc(CCC(=O)N(C)C)ccc4c3CCN2C1=O | -11% | i
99 | C/C(=N\N=C1\NC(=O)C(CC(=O)Nc2ccc(Cl)cc2)S1)c1ccco1 (stereo unspecified) | 7% | -8%
100 | COC(=O)c1cccc(C#CC(NP(=O)(c2ccccc2)c2ccccc2)c2ccccc2)c1 (stereo unspecified) | ? | ?
101 | O=C(O)c1ccc(-c2ccccc2Cl)o1 | -16% | i
102 | CCOC(=O)[C@]12Cc3c(cc(OC)c(OC)c3OC)[C@H]1N(Cc1ccccc1)C(=O)c1ccccc12 | -17%&-11% | -4%
103 | Cc1cc(C(C)(C)C)oc1C(=O)N(CC(=O)NC1CCCC1)c1ccc(F)cc1 | -22% | -2%
104 | O=C(CSc1nnc(NC(=O)c2ccc3c(c2)OCO3)s1)NCc1ccco1 | -10% | -12%
105 | COc1ccc(CCNS(=O)(=O)CCNC(=O)c2ccccc2)cc1 | -6% | -12%
106 | Cc1ccc(NC(=O)CCc2c(C)nn(-c3ccc(N4CCCCC4)nn3)c2C)cc1 | -23% | -29%
107 | O=Cc1cn(Cc2cccc([N+](=O)[O-])c2)c2ccccc12 | -7% | i
108 | CC(O)CNc1cnccn1 (stereo unspecified) | -16% | -1%
109 | CCC(Sc1nc2ncccc2[nH]1)C(=O)N1CCOCC1 (stereo unspecified) | -5% | -21%
